From PubChem
VDR inhibitor – blocks the human vitamin D receptor. P11473. VDR-SRC2-3 peptide fluorescence polarization, 2 h. Potency, µM, for inactives: max response, negative = inhibition, hits mostly inhibitors. 400,000 compounds, 0.93% hits. AID 504847; active = well fitted inhibition curve with a large enough effect; inconclusive = small, poorly fitted or top-dose-only effect, or another doubt; inactive = no such curve, though single readings can be large or run the other way; also: series mostly up to about 120 µM
Target sequence (P11473 whole entry, looked up): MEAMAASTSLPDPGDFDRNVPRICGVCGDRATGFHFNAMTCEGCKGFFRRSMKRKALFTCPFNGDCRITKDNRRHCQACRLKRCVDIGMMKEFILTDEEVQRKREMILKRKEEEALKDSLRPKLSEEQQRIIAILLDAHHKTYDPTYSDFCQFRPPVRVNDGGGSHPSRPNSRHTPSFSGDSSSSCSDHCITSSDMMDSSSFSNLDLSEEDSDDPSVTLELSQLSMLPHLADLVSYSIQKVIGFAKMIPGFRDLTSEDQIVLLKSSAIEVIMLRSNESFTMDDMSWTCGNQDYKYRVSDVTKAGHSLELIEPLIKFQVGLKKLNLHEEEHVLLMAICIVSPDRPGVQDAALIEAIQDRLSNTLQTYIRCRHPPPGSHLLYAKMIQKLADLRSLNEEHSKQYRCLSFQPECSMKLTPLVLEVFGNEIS
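VDR–SRC2-3 interaction, FP format. Cmpds 23 nl via pintool, brief spin, 2 h ambient incubation.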
* hit, by the source's call; ? = inconclusive. % is scaled to controls: 0 for no effect and ±100 for the full control effect; potency is read from the fitted curve at half-maximal effect. This is a subset. The share of hits here may be higher or lower than overall.

SMILES | VDR inhibitor
COc1ccc(Cc2nnc(NC(=O)C3CC(=O)N(c4ccccc4C)C3)s2)cc1OC (configuration not stated) | -12%
O=C(CSc1cn(CCNC(=O)c2ccccc2F)c2ccccc12)Nc1ccc(F)cc1 | 1%
CCOc1ccc(S(=O)(=O)N2CCC(C(=O)N3CCN(Cc4ccccc4)CC3)CC2)cc1 | 10%
CN1C2=CC=CC=CC2=[N+](C)C12C=CC(=[N+]([O-])[O-])C=C2[N+](=O)[O-] (configuration not stated) | 0%
COc1ccccc1NC(=S)NCc1ccc2c(c1)cc(C)n2C | -15%
CCOC(=O)c1cnc2c(cnn2C)c1Oc1ccc(OC)cc1 | -10%
COCC1CCN(C(=O)C2CCC(=O)N(C3CCCCCC3)C2)CC1 (configuration not stated) | 3%
CCOC(=O)C1CCCN(S(=O)(=O)c2c(C)noc2C)C1 (configuration not stated) | 16%
COc1ccccc1OCC(=O)N/N=C/c1cccc2cccnc12 | 1%
COCC(=O)N/N=C\c1ccccc1OC/C=C/c1ccccc1 | 8%

Structures listed so far that contain sulfur, in the order listed:
SMILES | VDR inhibitor
COc1ccc(Cc2nnc(NC(=O)C3CC(=O)N(c4ccccc4C)C3)s2)cc1OC (configuration not stated) | -12%
O=C(CSc1cn(CCNC(=O)c2ccccc2F)c2ccccc12)Nc1ccc(F)cc1 | 1%
CCOc1ccc(S(=O)(=O)N2CCC(C(=O)N3CCN(Cc4ccccc4)CC3)CC2)cc1 | 10%
COc1ccccc1NC(=S)NCc1ccc2c(c1)cc(C)n2C | -15%
CCOC(=O)C1CCCN(S(=O)(=O)c2c(C)noc2C)C1 (configuration not stated) | 16%

(cont.)
SMILES | VDR inhibitor
COc1cc(C)ccc1OCCn1c(-c2ccc(Cl)cc2)nc2ccccc2c1=O | -16%
CCCN1CCCc2cc(CN(CCCN3CCOCC3)C(=O)Nc3ccc(Cl)c(Cl)c3)ccc21 | 7%
N#CC1=C(S)N(c2ccc(F)cc2)C(c2ccco2)NC1=O (configuration not stated) | ?
CCn1nnnc1SCC(=O)Nc1ccc(N(C)C)cc1 | 4%
CCN(CC)CCN(C(=O)CN1C(=O)CCC1=O)c1nc2cc3c(cc2s1)OCO3 | 7%
C[C@]12CCC(=O)C=C1CC[C@H]1[C@@H]3CC[C@](O)(C(=O)CO)[C@@]3(C)C[C@H](O)[C@@]12F | 5%
O=C1CC(c2ccccc2)CC2=C1CN(C1CCCCC1)CN2 (configuration not stated) | -7%
CCOC(=O)CN1N=C(c2ccc(C)cc2)CCC1=O | ?
CC(=O)Oc1cccc(NC(=O)c2ccc3c(c2)C(=O)N(CC(C)C)C3=O)c1 | 29%
COc1ccc(NC(=O)CCS(=O)(=O)c2cc3c4c(c2)CCN4C(=O)CC3)cc1OC | -1%
COc1cc(C(=O)NNC(=O)Cc2cccs2)cc(OC)c1OC | -5%
CCCSc1ncc(Cl)c(C(=O)Nc2c(C(=O)Nc3ccc(OC)cc3)oc3ccccc23)n1 | 18%
COc1ccc(-c2c(C#Cc3ccsc3)c3cc(-c4ccc5c(c4)OCO5)ccc3n2C)cc1 | 3%
Cn1cccc1C(=O)NC(=O)CSc1cccc[n+]1[O-] | 0%
O=C(COc1coc(CN2CCc3ccccc3C2)cc1=O)N1CCOCC1 | -12%
CC1CCCN(C(=O)c2ccc3nc[nH]c3c2)C1 (configuration not stated) | 24%
COc1cc(C)ccc1OCCOc1cc(C)ccc1Cl | -6%
O=C(OC(C(=O)NCc1ccco1)c1ccc(Cl)cc1)c1cccs1 (configuration not stated) | -3%
CCOc1ccc(NC(=O)c2sc(-n3nc(C)c(Cc4ccc(Cl)cc4)c3C)nc2C)cc1 | 7%
Cc1cccc(Nc2nc(-c3ccccc3)c3cc(C)ccc3n2)c1 | -21%
O=C(O)C1CCCCC1C(=O)NCc1ccc(Cl)c(Cl)c1 (configuration not stated) | -5%
COc1ccc(CCNC(=O)c2cnc3sc(N4CCCCCC4)nn3c2=O)cc1OC | 6%
COc1cccc(CC(=O)OCC(=O)NC2CCCCCC2)c1 | 1%
Cn1c(N2CCCC2)nc2c1c(=O)n(Cc1ccc(Cl)cc1)c(=O)n2C | 1%
COCc1cc(=O)[nH]c(SCC(=O)c2ccccc2)n1 | 7%
COc1ccccc1CNc1nc(-c2cccc(C#N)c2)nc2ccccc12 | -17%
O=C(CN1CCN(S(=O)(=O)c2ccccc2)CC1)Nc1ccc(Cl)c(Cl)c1 | 13%
COc1ccccc1OCCNC(=O)CNC(=O)c1ccc(C(C)(C)C)cc1 | -1%
NC(=O)Cn1c(=O)n(-c2ccc(F)c(Cl)c2)c(=O)c2sc3ccccc3c21 | 10%
CC(C)N1CCC(=O)NC1=O | -7%
CC(C)(C)NC(=O)C(c1ccncc1)N(C(=O)CNC(=O)c1ccco1)c1ccc(F)cc1 (configuration not stated) | 10%
C/C(=N/NS(=O)(=O)c1cccc([N+](=O)[O-])c1)c1ccc2c(c1)OCO2 | 5%
CC(=O)C1C(=O)C=C(c2cccs2)CC1c1ccccc1 (configuration not stated) | 6%
Cc1cccc(NC(=O)C(CCC(N)=O)NC(=O)OCc2ccccc2)c1 (configuration not stated) | 2%
COc1cc(CNCc2ccccc2)c(Br)cc1OC1CCCC1 | 2%
CSc1nc(NC(C)(C)C)nc(Oc2ccc(=O)n(C)n2)n1 | -8%
Cc1c(C(=O)OCC2CCCCC2)[nH]c2c1C(=O)CC(c1ccc(F)cc1)C2 (configuration not stated) | -6%
COc1ccc(-c2nnc3sc(COc4ccccc4)nn23)cc1 | -1%
CN1CCN(CC(=O)Nc2nc3c(s2)CCCC3)CC1 | -1%
COC(=O)C(C)NC(=S)N1CCN(c2c(F)cc3c(=O)c(C(=O)O)cn(C4CC4)c3c2OC)CC1C (configuration not stated) | -10%
Cc1ccc(NC(=O)[C@@H]2CCCN2S(=O)(=O)c2ccccc2F)cc1S(=O)(=O)N1CCOCC1 | -8%
CCC(=O)Nc1ccc(C(=O)NNC(=O)COc2cc(C)ccc2C)cc1 | -16%
Cc1cc(Br)ccc1SCC(=O)OCC(=O)NC(C)c1ccccc1 (configuration not stated) | ?
COc1ccc(C(CC(=O)Nc2cc([N+](=O)[O-])ccc2OC)c2ccccc2)cc1 (configuration not stated) | -11%
CN1CC[C@@]2([C@@]34CCN(C)C3Nc3ccccc34)c3ccccc3NC12 (some centres not stated) | -3%
CSc1snnc1-c1ccccc1 | 9%
CN=Cc1sc2ccccc2c1O | -3%
COC(=O)[C@]1(C)CCC[C@@]2(C)C3CC[C@]4(OC(C)=O)C[C@@]3(CCC21)CC4=NO (some centres not stated) | 10%
CCOC(=O)c1ccc2nc(C(F)(F)F)[nH]c(=O)c2c1 | -4%
COC(=O)Cc1ccc(N(Cc2ccccc2F)S(=O)(=O)c2ccc(C)cc2)cc1 | 2%

The results go on:
SMILES | VDR inhibitor
COc1ccccc1OCc1ccc(C(=O)OCC2CCCO2)o1 (configuration not stated) | -18%
Cn1c(N)c(C(=O)COC(=O)/C=C/c2ccccc2F)c(=O)n(C)c1=O | -23%
CC1CCC/C(=C\Nc2ccccc2C(=O)O)C1=O (configuration not stated) | 1%
CC(C)(C)NC(=O)C(c1ccc(OCC(N)=O)cc1)N(C(=O)c1cccnc1)C1CC1 (configuration not stated) | -3%
Cc1cccc(NC(=O)c2cc[n+]([O-])cc2)c1C | -3%
C/C(=N/OCC(=O)Nc1ccc(C)cc1C)c1cccs1 | -1%
NC(=O)C1CCN(c2ccc(C(F)(F)F)cc2[N+](=O)[O-])CC1 | 16%
CCOC(=O)c1c(NC(=O)C(C)S(=O)(=O)c2cn(CC)c3ccccc23)sc2c1CCCC2 (configuration not stated) | 10%
CCOC(=O)CSC(=S)NC(=O)c1ccc(OC)cc1 | ?
Cc1ccc(Cl)cc1NC(=O)COC(=O)CN1C(=O)C2CCCCC2C1=O (configuration not stated) | 23%

Shown with each value named: 3 of the compounds above
CCOc1ccc(NC(=O)c2sc(-n3nc(C)c(Cc4ccc(Cl)cc4)c3C)nc2C)cc1
  VDR inhibitor: 7%

COc1ccccc1OCC(=O)N/N=C/c1cccc2cccnc12
  VDR inhibitor: 1%

COc1cccc(CC(=O)OCC(=O)NC2CCCCCC2)c1
  VDR inhibitor: 1%

The list goes on:
SMILES | VDR inhibitor
COc1ccc(CNC(=O)c2cc(COc3c(F)cccc3F)on2)cc1OC | 7%
CC(=O)Oc1ccc2c(=O)c(/C=N/c3cc(=O)[nH]c(=S)[nH]3)coc2c1 | -27%
CC(=O)c1c(-c2ccc(Cl)cc2)c2ccccc2[nH]c1=O | 14%
Clc1ncnc2scc(-c3ccc(Br)cc3)c12 | -8%
O=C(CSc1ccc([N+](=O)[O-])cc1)NNC(=O)c1ccccc1F | -11%
O=C(O)c1ccc(-c2ccccc2)[nH]1 | 8%
O=C(Nc1cccc(-c2cccc(F)c2)c1)C1CCN(CC2CCOC2)CC1 (configuration not stated) | -15%
Cc1ccc(N2C(=O)[C@@H]3CSC(c4ccc(F)cc4)N3C2=O)cc1 (some centres not stated) | -2%
Cc1ccc(CNC(=O)CSc2c(C)cnc3c2c(=O)n(C)c(=O)n3C)cc1 | 12%
O=P(Cc1ccccc1)(Cc1ccccc1)c1ccccc1 | -8%
COC(=O)c1c(C(=O)OC)c(-c2ccc(OC)cc2)n2c1CS(=O)C2 (configuration not stated) | -1%
CCOc1ccccc1NC(=O)CSc1nnc(CC)c(CC)n1 | 10%
Cc1nc2ccccc2c(=O)n1/N=C/c1ccc(O)cc1 | -2%
C=CCC[C@H](Cc1ccc(F)cc1)C(=O)OC[C@H](C)NC(=O)[C@H](CC=C)CC(=O)N(CCO)Cc1ccccc1 | -12%
Cn1c(SCC(=O)Nc2cccc(F)c2)nnc1-c1cc2ccccc2o1 | ?
Cc1ccc(OCc2nc(-c3ccccn3)no2)cc1 | -8%
CC(C)(C)OC(=O)C[C@@H]1C/C=C\C[C@@H](CC(=O)NCCO)C(=O)NCCOC1=O | -3%
C(=C\c1ccccc1)/CSc1nnc(-c2ccccn2)n1Cc1ccco1 | -14%
O=C1C(NS(=O)(=O)c2ccc(Cl)cc2)=C(N2CCCCC2)C(=O)c2ccccc21 | -13%
COc1ccc(CCNC(=O)Cn2nnc(-c3ccccc3F)n2)cc1OC | 3%

Sorted by the number under VDR inhibitor (ascending): 4 from the list above
| molecule | VDR inhibitor |
| --- | --- |
| O=C1C(NS(=O)(=O)c2ccc(Cl)cc2)=C(N2CCCCC2)C(=O)c2ccccc21 | -13% |
| Cc1ccc(OCc2nc(-c3ccccn3)no2)cc1 | -8% |
| Cc1nc2ccccc2c(=O)n1/N=C/c1ccc(O)cc1 | -2% |
| CCOc1ccccc1NC(=O)CSc1nnc(CC)c(CC)n1 | 10% |

Further entries.
SMILES | VDR inhibitor
C#CCOC(=O)C(NC(=O)c1ccccc1)=C1CCCCC1 | -10%
COc1ccc(CNC(=O)CCCn2c(SCC(N)=O)nc3cc4c(cc3c2=O)OCO4)cc1 | 4%
Cc1ccc(Cl)cc1Nc1nc2ccccc2n2c(C)nnc12 | 14%
CC(=O)c1c(NC(=O)C(C)C)nc(C)nc1-c1ccccc1 | 15%
CSc1ccc(NC(=O)NCCCN2CCN(c3ccccc3F)CC2)cc1 | -9%
COc1ccc(S(=O)(=O)NCc2cccnc2)cc1 | -16%
COc1ccc(S(=O)(=O)N2CCCC2CNC(=O)C(=O)NCc2ccc(C)cc2)cc1 (configuration not stated) | 8%
COc1ccc(-c2noc(N3CCC(C(=O)Nc4cccc(OC)c4)CC3)n2)cc1 | 9%
Cc1cccc(NC(=O)CCC(=O)N/N=C/c2ccc(O)cc2O)c1 | 8%
Cc1ccccc1-c1nc(CS(=O)(=O)CC(=O)N2CCOCC2)c(C)o1 | 27%
O=C(NCCc1ccccc1)c1cc(-c2ccc3c(c2)OCO3)on1 | -7%
COc1cc(/C=C2/C(=N)N3N=C(CC(=O)N4CCOCC4)SC3=NC2=O)ccc1OCc1ccc(F)cc1 | -17%
CCn1c(SC2CCOC2=O)nnc1-c1ccc(Cl)cc1 (configuration not stated) | -28%
O=C(COc1ccccc1)Nc1ccc2[nH]ncc2c1 | 9%
Cc1ccc(NC(=O)COc2ccc(C(=O)NCCc3ccccc3)cc2)cc1 | -16%
CCOC(=O)CNCCC(=O)c1ccc(Br)cc1 | 50µM*
COc1ccc2nc(-c3ccc(F)cc3)sc2c1 | -7%
CN(C)c1ccc(CNc2nc(-c3ccco3)nn2C(=O)c2cccc([N+](=O)[O-])c2)cc1 | 11%
O=C(COC(=O)c1ccc([N+](=O)[O-])s1)c1ccc[nH]1 | -8%
Cc1ccc(C(=O)COC(=O)[C@@H](NC(=O)c2ccco2)C(C)C)s1 | -6%
CCOC(=O)c1cnc2ccc(OCC)cc2c1N1CCN(C)CC1 | 2%
CN(CC(=O)Nc1ccccc1Cl)C(=O)c1ccc(COc2ccccc2)cc1 | -19%
O=C(O)CC1NC(=S)N(c2ccccc2)C1=O (configuration not stated) | -4%
O=C(COC(=O)C1(c2ccccc2F)CCCC1)N1CCNC1=O | 4%
CC1CCN(C(=S)c2cccc(O)c2)CC1 | -27%
O=C(c1ccc(S(=O)(=O)N2CCCC2)cc1)N1CCN(c2cccc(Cl)c2)CC1 | -1%
COc1ccccc1N1CCN(S(=O)(=O)c2ccc(F)c(C(=O)Nc3ccc(Cl)cc3C(F)(F)F)c2)CC1 | 1%
CNc1ccc(SC#N)cc1 | -21%
Cc1ccc(-c2nc3ccccc3[nH]2)cc1NC(=O)COc1ccccc1[N+](=O)[O-] | 14%
COc1ccc(-c2nc(C=O)cs2)cc1 | 7%
O=C(Nc1ccc(C(=O)O)cc1)Nc1cccc2ccccc12 | 9%
O=C(NC(=S)Nc1ccc(S(=O)(=O)Nc2nccs2)cc1)C1CC1 | -8%
CC(CCc1ccccc1)NC(=O)CN1C(=O)NC2(CCCCC2C)C1=O (configuration not stated) | 5%
O=C(NNC(=O)c1csc(-c2cccnc2)n1)c1ccccc1 | 1%
